High-throughput results: PubChem BioAssay, National Center for Advancing Translational Sciences (NCATS)
Vaccinia mCherry = qHTS for Stage-Specific Inhibitors of Vaccinia Orthopoxvirus: mCherry Reporter Primary qHTS | AID 720579, 2013 | 310,000 compounds, 0.63% hits | Potency, µM (titrated, usually from 36.5 µM), for inactives: at the highest dose activity change, negative = inhibition, most hits filed as inhibitors | Vaccinia virus mCherry reporter infection, fluorescence; about a quarter of the inactives have no number; active = well fitted inhibition curve with a large enough effect; inconclusive = small, poorly fitted or top-dose-only effect; inactive = no such curve, though single readings can be large or run the other way; tested in A549 cells; further: nearly all actives have a fitted effect of over 35% in size; inactives centre near -10
VACV Venus inh = qHTS for Stage-Specific Inhibitors of Vaccinia Orthopoxvirus: Venus Reporter Primary qHTS. AID 720580, 2013. Potency, µM (top dose mostly 36.5 µM), for the others: at the highest dose activity change, negative = inhibition, actives largely listed as inhibitors. Vaccinia virus Venus reporter expression, fluorescence. 330,000 compounds, 0.46% hits; active means well fitted inhibition curve with a large enough effect; inconclusive means small, poorly fitted or top-dose-only effect; inactive means no such curve, though single readings can be large or run the other way; tested in A549 cells; further: nearly all actives have a fitted effect of over 30% in size; inactives centre near -10
The depositor's hits bear a star; i = inactive; ? = inconclusive; / = not tested or not shown; & = joins results of further samples; [ ] = dose if it differs, or a comment. On the % scale 0 is the no-effect control and ±100 the full control effect; potency means the concentration at half of the fitted maximal effect.

SMILES | Vaccinia mCherry | VACV Venus inh
O=C(NCCCn1ccnc1)c1cn(-c2ccccc2)nc1-c1ccccc1 | -19% | -12%
Cc1cc(C)nc(N/N=C/c2sccc2C)n1 | -12% | -12%
NC(=O)c1ccccc1N=Cc1ccc2ccccc2c1 | ? | ?
Cc1ccccc1NC(=O)Cc1nc(COC(=O)c2nccnc2N)cs1 | -11% | -4%
N#C/C(=C/c1ccc(OC(=O)c2ccc(Br)s2)cc1)c1nc2ccccc2[nH]1 | -13% | 18%
Cc1cc(C)nc(N/N=C/c2ccc3c(c2)OCCO3)n1 | i | -3%
C=CCOC(=O)C1=C(C)NC(SCC(=O)N(CC)CC)=C(C#N)C1c1ccco1 (configuration not stated) | -19% | ?
COC(=O)c1cc(C(=O)OC)n(Cc2ccc(C)cc2)c1C | i | -11%
C=C(C)CNC(=S)N1CCN(C(c2ccccc2)c2ccccc2)CC1 | -5% | 3%
CCC(=O)Nc1ccc2c(c1)nc(CN1CCCCC1)n2C | -13% | -14%
O=C(COC(=O)Cn1cnc2ccccc21)NCCc1ccccc1 | i | -19%
O=C(COC(=O)c1ccc(Cl)nc1)NCc1ccc2c(c1)OCO2 | -5% | 2%

Continued; it opens with the seven that closed the last part.
SMILES | Vaccinia mCherry | VACV Venus inh
Cc1cc(C)nc(N/N=C/c2ccc3c(c2)OCCO3)n1 | i | -3%
C=CCOC(=O)C1=C(C)NC(SCC(=O)N(CC)CC)=C(C#N)C1c1ccco1 (configuration not stated) | -19% | ?
COC(=O)c1cc(C(=O)OC)n(Cc2ccc(C)cc2)c1C | i | -11%
C=C(C)CNC(=S)N1CCN(C(c2ccccc2)c2ccccc2)CC1 | -5% | 3%
CCC(=O)Nc1ccc2c(c1)nc(CN1CCCCC1)n2C | -13% | -14%
O=C(COC(=O)Cn1cnc2ccccc21)NCCc1ccccc1 | i | -19%
O=C(COC(=O)c1ccc(Cl)nc1)NCc1ccc2c(c1)OCO2 | -5% | 2%
COc1ccc(/C=C/C(=O)NCCCN2CCOCC2)cc1 | i | -14%
COc1cc(/C=N/NC(N)=O)ccc1OCC(=O)Nc1ccc(C)c(C)c1 | -7% | -7%
CCC(Sc1nc(C)cc(C)n1)C(=O)NC1=NN=C(c2ccc(C)cc2)CS1 (configuration not stated) | ? | ?
CC(=O)N1CCCN(C(=O)c2cc(COc3c(F)cccc3F)on2)CC1 | -10% | -15%
Cn1nnc(CC[N+](C)(C)C)n1 | -19% | -13%
CN(CCC1CCCCO1)C(=O)c1cc(COc2ccc(F)cc2F)on1 (configuration not stated) | -4% | -19%
CC(Oc1ccccc1Cl)C(=O)Nc1ccc(S(=O)(=O)N2CCN(C)CC2)cc1 (configuration not stated) | -4% | -1%
COC(=O)Cc1c(C)nc2nc(Cc3ccccc3)[nH]n2c1=O | / | -9%
Cc1ccccc1N(C(=O)CNC(=O)c1cccs1)C(C(=O)NC1CCCC1)c1ccncc1 (configuration not stated) | -11% | -2%
COc1ccc2c(CNCCc3ccc(SC)cc3)c(C(=O)O)n(Cc3ccc(F)cc3)c2c1 | ? | -30%
CC(NC(=O)c1ccc2c(c1)OCO2)c1ccccc1 (configuration not stated) | -4% | 3%
Clc1ccc(C2[C@H]3CN(CC4CCCCC4)[C@H](c4ccccc4)C34CC2(c2cccnc2)C4)cn1 (some centres not stated) | -26% | -25%
O=C1Nc2ccccc2C12OCC1(CO2)COC2(OC1)C(=O)Nc1ccccc12 (configuration not stated) | -21% | -7%
COC(=O)c1ccc(C(NC(=O)OCc2ccccc2)/C(F)=C/[C@@H](C)C(=O)O)cc1 (some centres not stated) | i | -10%
CC(C)Cn1c(-c2nn(C)cc2Cl)n[nH]c1=S | / | -11%
O=C(NCCC1=CCCCC1)c1cnccn1 | -9% | -3%
CSCCOC(=O)COc1ccc(/C=N/NC(=O)c2nn(C)cc2Cl)cc1 | -5% | -10%
Cc1ccsc1C(=O)NNC(=S)NCC(C)C | -5% | -16%
CCC(Sc1ncccc1C(=O)Oc1cccc([N+](=O)[O-])c1)C(=O)Nc1ccccc1OC (configuration not stated) | i | -10%
COc1ccc2cc(Br)ccc2c1CC(=O)N(C)C | -6% | -7%
Cc1ccc(C(=O)Nc2cccc([N+](=O)[O-])c2)cc1S(=O)(=O)Nc1cccc(C(=O)O)c1 | 1% | -9%
CCc1ccc(S(=O)(=O)NCCc2cn3ccsc3n2)cc1 | -13% | -13%
CCOC(=O)C1(Cc2ccccc2)CCCN(CCO)C1 (configuration not stated) | -8% | 1%
Cc1ccc(Nc2nnc(-c3ccc4c(c3)OCO4)o2)c(C)c1 | -15% | -17%
N#Cc1ccc(S(=O)(=O)NC2CCN(Cc3ccccc3)CC2)cc1 | -19% | 2%
CCOC(=O)CCCNC(=O)COC(=O)c1cc(Br)c(Br)s1 | i | -6%
COc1ccc(CN2CC(C(=O)NCCCN3CCN(Cc4ccccc4)CC3)CC2=O)cc1 (configuration not stated) | -22% | -11%
Cc1c(CC(=O)NCC(=O)O)c(=O)oc2cc3occ(-c4ccccc4)c3cc12 | -14% | -15%
CC(Sc1nc(C(C)(C)C)cc(-c2ccccc2)c1C#N)C(=O)Nc1ccccc1 (configuration not stated) | -23% | -18%
CCN(CC)C1CCN(C(=O)c2cc(COc3ccc(-n4cncn4)cc3)on2)C1 (configuration not stated) | -3% | -14%
NNc1nc(N)c2c(n1)-c1ccccc1CC21CCCC1 | -13% | -8%
O=c1sc2ccccc2n1COc1ccc(Cl)cc1 | i | -12%
CN(C)c1ccc(/C=C2\C=Nc3ccccc32)cc1 | -27% | 18%
CSc1ccccc1C(=O)NC(C)c1ccc(-n2ccnc2)cc1 (configuration not stated) | i | -9%
CC(=O)Nc1sc(C)c(C)c1C(=O)OCC(=O)N(C)C1CCS(=O)(=O)C1 (configuration not stated) | i | -10%
Cc1nnc(SCC(=O)N2CCCC(N3CCN(c4ccc(F)cc4)CC3)C2)o1 (configuration not stated) | -7% | -1%
Cc1ccc(-c2ccc(C(=O)O)o2)cc1Cl | -14% | -4%
CCOc1ccc(OCCC(=O)OCC(=O)c2c(N)n(C)c(=O)n(C)c2=O)cc1 | i | -4%
Cc1cccc(N2CCN(C(=O)Cn3ncc4c5ccccc5n(C)c4c3=O)CC2)c1C | 5% | 17%
COc1ccc(NC(=S)NC2CCCC2)c(OC)c1 | i | -14%
CC(=O)/C(=N\Nc1cccc(Cl)c1)Sc1cccc2cccnc12 | -9% | -6%
Cc1ccc(Cn2c(CN3CCC(C(=O)NCc4ccccc4C)CC3)cc3ccccc32)cc1 | -10% | 1%
Cc1sc2ncnc(N3CCC(C(=O)Nc4ccc(Cl)cc4Cl)CC3)c2c1C | -1% | -19%
CCOc1ccc(N2C(=O)NC(=O)/C(=C\c3ccc(N4CCCCC4)o3)C2=O)cc1 | i | 3%
CCOC(=O)c1c(NC(=O)c2cccs2)sc(C(=O)N(C)C)c1C | -17% | 6%
C/C(=N\NC(=O)c1cccc([N+](=O)[O-])c1)c1ccco1 | i | -10%
COc1ccc(N(CC(=O)NC2CCCC2)C(=O)Cn2nnc(-c3ccc(OC)c(OC)c3)n2)c(OC)c1 | -24% | -11%
COc1cccc(N2CC34C=CC(O3)C(C(=O)O)C4C2=O)c1 (configuration not stated) | -14% | -13%

Looked up above:
Vaccinia mCherry result of Cc1cccc(N2CCN(C(=O)Cn3ncc4c5ccccc5n(C)c4c3=O)CC2)c1C = 5%
Vaccinia mCherry result of Cc1ccc(Cn2c(CN3CCC(C(=O)NCc4ccccc4C)CC3)cc3ccccc32)cc1 = -10%
VACV Venus inh result of COc1cccc(N2CC34C=CC(O3)C(C(=O)O)C4C2=O)c1 (configuration not stated) = -13%
VACV Venus inh result of CCOc1ccc(OCCC(=O)OCC(=O)c2c(N)n(C)c(=O)n(C)c2=O)cc1 = -4%
Vaccinia mCherry result of CC(=O)/C(=N\Nc1cccc(Cl)c1)Sc1cccc2cccnc12 = -9%
Vaccinia mCherry result of CCOC(=O)c1c(NC(=O)c2cccs2)sc(C(=O)N(C)C)c1C = -17%

Additional structures
SMILES | Vaccinia mCherry | VACV Venus inh
COc1ccc([C@H]2CC(=O)C=C(c3ccc4c(c3)OCO4)C2)cc1 | -8% | -20%
C/C(=N\NC(=O)C(=O)Nc1ccc(C)c(Cl)c1)c1ccncc1 | -16% | -9%
O=C(c1cccs1)N1C[C@@H](O)[C@H](n2cc(-c3ccc(F)cc3)nn2)C[C@@H]1c1ccc(Cl)cc1 | i | -27%
COc1ccc(NC(C)C(=O)Nc2cc(C(F)(F)F)ccc2N2CCOCC2)c(OC)c1 (configuration not stated) | ? | -29%
CCc1cccc(C)c1NC(=O)CCCn1nc(C)c2sc3ccccc3c2c1=O | -25% | -26%
CCOC(=O)c1cnc(SCC(=O)Nc2cc(OC)ccc2OC)nc1N | -19% | ?
CCCNC(=O)N1CCN(c2ncccn2)CC1 | / | -14%
Cc1ccc2c(c1)CN(CCNC(=O)c1c(-c3ccccc3)noc1C)CC(C)O2 (configuration not stated) | -7% | 12%
C=C1C(=O)[C@]23C[C@H]1CCC2[C@]1(C)C(=O)CC[C@@](C)(C(=O)O)C1C[C@@H]3O (some centres not stated) | ? | ?
O=S(=O)(O)CCS | -9% | -21%&-8%
O=C(CN1CCC(O)(c2ccc3c(c2)OCO3)CC1)OC1CCCCC1 | -11% | -8%
CCC(OC(=O)c1ccco1)C(=O)NCc1ccc(C)cc1 (configuration not stated) | 3% | -6%
CCOC(=O)c1cccc(Nc2nc(-c3cccnc3)nc3ccccc23)c1 | / | 22µM*
Cc1cc(C(=O)N2CCC2(C)C(=O)Nc2cccc3ccccc23)nn1C (configuration not stated) | i | -2%
CCC(Oc1ccccc1)C(=O)Nc1nnc(C(F)(F)F)s1 (configuration not stated) | / | -19%
CC1=NCCN1S(=O)(=O)c1c(C(C)C)cc(C(C)C)cc1C(C)C | -15% | -25%
CCOC(=O)c1c(NC(=O)CSc2nnc(C)c(=O)[nH]2)sc2c1CCC2 | / | -14%
COc1cc(NC(=S)N2CCN(Cc3ccccc3)CC2)cc(OC)c1 | -21% | -14%
Cc1cccc(C2=NN(c3ccccc3)[C@@H](C(=O)N3CCOC3=O)[C@@H]2c2ccccc2)c1 | -16% | -25%
COc1ccc(C(C(=O)NC2CCCCC2)N(C(=O)CCl)c2ccc(OC)cc2)cc1 (configuration not stated) | i | -17%
O=C(CN1CCN(c2ccc(F)cc2)CC1)Nc1nnc(-c2ccccc2)s1 | -17% | -11%
CCCCCCSc1ccc([C@H]2N[C@@](C)(C(=O)OC)[C@H]3C(=O)N(CC)C(=O)[C@@H]23)cc1 | -8% | -23%
CCOCCCNC(=O)CN1C(=O)COc2ccc(S(=O)(=O)N3CCCC3)cc21 | 2% | 6%
Cc1cc(C)c(Cn2cnc3ccccc32)c(C)c1 | i | -11%
CCCCn1c(N)c(N(CCOC)C(=O)c2cc(-c3ccccc3)nc3ccccc23)c(=O)[nH]c1=O | i | -6%
COc1cc2cc(CCCOC(=O)c3ccco3)oc(=O)c2cc1OC | -2% | -17%
Nc1ccc(N=Nc2ccccc2)cc1 | ? | -12%
CC1CN(c2nc3ccccn3c(=O)c2/C=C(\C#N)C(=O)N2CCOCC2)CC(C)O1 (configuration not stated) | i[7.34 µM] | 5%[7.34 µM]
COc1ccc(C(=O)Nc2cccc(/C=C(\CCC(=O)O)c3nc4ccccc4s3)c2)cc1 | -4% | 1%
COc1ccc(C(C)(C)C)cc1NC(=O)c1cncc(Br)c1 | / | -17%
Cc1cc(-n2nc(C)cc2C)nc(N)n1 | -2% | -3%
CCCNC(=O)c1cccc(COCC(F)(F)F)c1 | -10% | -8%
CC1(C)C2(Cl)C(Cl)C(Cl)C(Cl)(C(Cl)Cl)C1(Cl)C2Cl (configuration not stated) | 3% | 4%
CCCCc1nc2cc(C(=O)NCCc3cnn(C)c3)ccc2o1 | 0% | -8%
CN[C@H](C)C(=O)NC[C@H]1O[C@@H](n2ccc(N)nc2=O)[C@H](O)[C@@H]1O | i | 2%
Cn1c(O)c(C=NCCN2CCOCC2)c(=O)[nH]c1=S | -1% | 6%
COc1ccc(C(CNC(=O)/C=C/c2c(Cl)nc3ccccn23)N(C)C)cc1 (configuration not stated) | -15% | -9%
CCC(=O)N1CCc2cc(S(=O)(=O)NCCC(=O)Nc3ccc(C)cc3)ccc21 | -3% | -10%
Cc1sc2nc(CSCC(=O)Nc3ccc(Cl)cc3F)[nH]c(=O)c2c1C | -7% | -21%
COc1ccc(C(=O)CN2CCOCC2)cc1F | 19% | 8%
O=C(NNS(=O)(=O)c1cccc(Cl)c1)c1cc(-c2ccc(F)cc2)nc2ccccc12 | -3% | -12%
COc1ccc(NC(=O)c2cccs2)cc1C(=O)N1CCN(c2ccccc2)CC1 | -16% | ?
CCCN1CNC(=S)N(c2ccccc2C)C1 | -6% | -9%
O=C(CN1CCC(n2nnc3cc(F)ccc32)CC1)Nc1ccccc1N1CCOCC1 | -24% | -14%
CCC(CC)C(=O)Nc1cc(NC(=O)C(CC)CC)cc(C(=O)O)c1 | -10% | -11%

Rows were taken by chance. Share with any hit: about 0.86%.
